Source: PubChem (National Center for Advancing Translational Sciences (NCATS))
VDR inhibitor = Inhibitors of the vitamin D receptor (VDR): qHTS | Potency, µM, for inactives: max response, negative = inhibition, actives largely listed as inhibitors | actives 0.93% (n = 400,000) | AID 504847, 2011 | VDR-SRC2-3 peptide fluorescence polarization, 2 h; active = well fitted inhibition curve with a large enough effect; inconclusive = small, poorly fitted or top-dose-only effect, or another doubt; inactive = no such curve, though single readings can be large or run the other way; note: series mostly up to about 120 µM
Target sequence (P11473 whole entry, looked up): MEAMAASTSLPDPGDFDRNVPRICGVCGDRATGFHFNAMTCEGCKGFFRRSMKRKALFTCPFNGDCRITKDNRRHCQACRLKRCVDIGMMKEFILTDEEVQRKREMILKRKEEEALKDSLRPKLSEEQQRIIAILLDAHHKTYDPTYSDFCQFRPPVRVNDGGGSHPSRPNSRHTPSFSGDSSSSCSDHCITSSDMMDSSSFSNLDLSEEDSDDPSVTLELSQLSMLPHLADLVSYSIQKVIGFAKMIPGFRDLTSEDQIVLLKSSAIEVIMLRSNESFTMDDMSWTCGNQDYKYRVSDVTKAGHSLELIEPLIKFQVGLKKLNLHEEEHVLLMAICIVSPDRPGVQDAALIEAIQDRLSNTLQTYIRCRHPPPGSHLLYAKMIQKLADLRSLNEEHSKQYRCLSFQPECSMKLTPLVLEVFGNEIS
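Fluorescence polarization assay of small-molecule disruption of VDR binding to coregulator peptide SRC2-3. Compounds and controls pin-transferred, then read after 2 h incubation at ambient room temperature.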
* = called active by the depositor; ? = inconclusive; & = joins results of further samples; [ ] = dose if it differs, or a comment. % is set by controls: 0 for no effect and ±100 for the full control effect; potency is the fitted concentration of half-maximal effect.

VDR inhibitor,mol
-23%,COc1ccc2c(c1)C1NC(=S)NC(C)(O2)C1C(=O)Nc1ccc(Cl)cc1 (centres undefined)
4%,O=C(c1cccn1-c1nnc(N2CCCCC2)s1)N1CCN(c2ccc(Cl)cc2)CC1
22%,COc1ccc(N(C2=NCCCS2)S(=O)(=O)c2ccc(C(C)(C)C)cc2)cc1
-5%,CC(OC(=O)c1nn(C(C)C)c(=O)c2ccccc12)C(=O)Nc1ncc(Cl)cc1Cl (centres undefined)
6%,CC(C)(C)NC(=O)CC1C[C@H](C(=O)N2CCCCC2)[C@@]2(CCc3ccccc3)c3[nH]c4ccccc4c3CCN2C1=O (some centres undefined)
9%,CC(=O)Nc1ccc(S(=O)(=O)NCCOc2ccc(Cl)cc2C)cc1
-20%,Cc1nc(SCc2cccc(F)c2)c2oc3ccccc3c2n1
15%,COc1cc(CN(C)CC(=O)c2[nH]c(C)c(C(C)=O)c2C)ccc1OC(F)F
?,Oc1ccc2ccccc2c1CN1CCN(C/C=C/c2ccccc2)CC1
-25%,CC(C)N1C(=O)c2ccccc2C1C(=O)NCCc1ccccc1 (centres undefined)

VDR inhibitor,mol
-9%,COc1cccc(CNC(=O)CSCc2cnn(-c3ccccc3)c2-n2cccc2)c1
10%,Cc1sc(NC(=S)NC(=O)c2cccs2)nc1-c1ccc(CC(C)C)cc1
-6%,COc1ccc(NCc2cc3ccc(OC)cc3n(CC(=O)Nc3ccc(C)c(C)c3)c2=O)cc1
-11%,CN(c1ccccc1)S(=O)(=O)c1ccc(-c2ccccc2)cc1
?,Cn1cc(SCC(=O)NC2CCCCC2)c2ccccc21
-9%,O=C(NC(N1CCCC1)C(Cl)(Cl)Cl)c1ccccc1 (centres undefined)
-4%&-17%,COc1cc(CO)c(OC)c([N+](=O)[O-])c1
-8%,CCOC(=O)Cn1c(=O)oc2cc(S(=O)(=O)N3CCC(N4CCCCC4)CC3)ccc21
?,O=C(COc1ccc(Cl)cc1)Nc1sc2c(c1C(=O)Nc1cccc(Cl)c1)CCCC2
10%,Cc1ccc(C(=O)Nc2cc(C(F)(F)F)ccc2N2CCCCC2)cc1[N+](=O)[O-]

VDR inhibitor,mol
-16%,O=C(Nc1nnc(C2=COCCO2)o1)c1ccc([N+](=O)[O-])s1
1%,Cc1nn(CC(=O)OCC(=O)NCCc2ccc(F)cc2)c(C)c1[N+](=O)[O-]
2%&-7%&-1%,CC(C(=O)O)c1ccc(CC2CCCC2=O)cc1 (centres undefined)
-7%,Cc1ccc(NC2=NCC(=O)N2Cc2ccc3c(c2)OCO3)c(C)c1
-22%,OCC1(CCc2ccccc2)CCN(C/C=C/c2ccccc2)CC1
-7%,CCN(CC)CCN(C(=O)CCOc1ccccc1)c1nc2c(F)cc(F)cc2s1
42%[activator],O=C1c2ccccc2C(=O)N1CNc1ccccc1
-17%,COc1ccc(-c2sc(C(=O)c3ccc(Cl)cc3Cl)cc2CC(=O)O)cc1
-7%,Cc1cccc(NC(=O)c2cnc3sccn3c2=O)n1
-3%,CCOC(=O)c1ccc[n+]([O-])c1

VDR inhibitor,mol
13%,CCc1nnc(SCc2ccc(F)cc2Cl)c2cc3sccc3n12
3%,Cc1ccccc1NC(=O)c1ccc2nc(Cc3ccccc3)oc2c1
-16%,COc1cc(NC2c3ncccc3C(=O)N2Cc2ccco2)cc(OC)c1 (centres undefined)
-2%,CC(C)Oc1ccc(C(=O)Nc2ccc(Cl)c(S(=O)(=O)Nc3ccc(Cl)cc3)c2)cc1
-6%,COc1ccc2cc(CCN3C(=O)c4ccccc4C3=O)c(=O)[nH]c2c1
-14%,COc1ccc2c(c1C)CCC(C)(C#N)C2=O (centres undefined)
4%,CC(C)COC(=O)c1nnsc1NC(=O)Nc1ccccc1
24%,Clc1cccc(Cl)c1NC1=NCCC1
-9%,CNc1nn(-c2cccc(Cl)c2)nc1N
-1%,CC(=O)NC1=NN(C(C)=O)C(C)(c2cccnc2)S1 (centres undefined)

VDR inhibitor,mol
3%,COC(=O)C1=CN(Cc2ccc(OC)cc2)C=C(C(=O)OC)C1c1cc(OC)c(OC)c(OC)c1
29%,CC(=O)N(C(C)=O)c1cccc2c(N(C(C)=O)C(C)=O)cccc12
-17%,O=C(NCc1ccco1)C1CCN(C(=O)c2ccc(Cl)cc2)CC1
14%,CCCS(=O)(=O)NCCc1csc2nc(-c3ccc(C)cc3)nn12
0%,Nc1c(C(=O)Nc2cccc(F)c2)c2ccccn2c1C(=O)c1ccccc1
-2%,CCOC(=O)c1c(C)oc2ccc(OC(=O)c3cccs3)cc12
4%,COc1cccc(N2CCN(c3ncnc4c3c(-c3ccccc3)cn4-c3cccc(C(F)(F)F)c3)CC2)c1
-4%,CC(=O)c1ccc2c(c1)Nc1ccccc1S2
14%,O=C(Nc1ccccc1F)NC1CCCc2ccccc21 (centres undefined)
13%,Cc1cc(-c2ccc(S(=O)(=O)Nc3cccc(C)c3C)s2)on1

VDR inhibitor,mol
-3%,CCCCCCCN=C(C)c1ccccc1O
9%,CCOC(=O)Cc1csc(SCC(=O)NC2CCCC2)n1
-2%,CC(C)(C)NC(=O)CN1C(=O)NC(c2ccccc2)(c2ccccc2)C1=O
-14%,O=C(COC(=O)C1CC2CCCC(C1)C2=O)c1cccc(Br)c1 (centres undefined)
-6%,COC(=O)c1cccc(Oc2nc3c(c(=O)n(C)c(=O)n3C)n2Cc2ccc(C)cc2)c1
10%,O=C(NNC(=O)c1cccc(S(=O)(=O)N2CCCCC2)c1)c1ccccc1
9%,CN1CCN(c2ccc(NC(=O)Cc3ccccc3)cc2)CC1
20%,O=C(OCc1cc(=O)n2nc(-c3cccs3)sc2n1)c1ccccc1Cl
-8%,O=C(C[n+]1cc(-c2ccc(F)cc2)n2c1CCC2)Nc1nc(-c2ccccc2)cs1
-8%,CSc1cccc(NC(=O)Cn2nnc(C(=O)NCCc3ccccc3)c2N)c1

Molecules from the list above that contain a COOH group:
VDR inhibitor,mol
2%&-7%&-1%,CC(C(=O)O)c1ccc(CC2CCCC2=O)cc1 (centres undefined)
-17%,COc1ccc(-c2sc(C(=O)c3ccc(Cl)cc3Cl)cc2CC(=O)O)cc1

Next part:
VDR inhibitor,mol
-11%,CCn1nc(NC(=O)Cc2ccc(OC)cc2)c2cc3cc(C)ccc3nc21
-15%,O=C(CSc1nc2ccsc2c(=O)n1Cc1ccccc1Cl)NCc1ccc(F)cc1
8%,COc1ccc2c(c1)c(C(=O)N/N=C/c1ccccc1Cl)c(C)n2C
-9%,c1ccc(-c2ccncc2)nc1
-10%,CCC1CN(C(=O)Nc2ccccc2F)c2cc(C)ccc2O1 (centres undefined)
11%,COc1cc2c(cc1OC)-c1cc(NC3CCCCC3)nc(=O)n1CC2
6%,O=C(/C=C/c1ccccc1)NCCC1=CCCCC1
4%,Cc1cc(NC(=O)CSc2nc(Cc3ccc(O)cc3)c(C)[nH]2)no1
10%,CC(C)(C)C(=O)OCCNc1nc(-c2cccs2)nc2ccccc12
-4%,COc1ccc(Nc2cc(Nc3ccccc3)ncn2)cc1

VDR inhibitor,mol
7%,CCn1ncc(Cl)c1C(=O)Nc1ccncc1
1%,N#CC1=C2SCCN2C(=O)C(C#N)C12CCCCC2 (centres undefined)
-13%,COc1ccc2c(c1OC)C(=O)N(C(C)C(=O)O)C2=O (centres undefined)
9%,O=C(CSc1nnc(-c2cccnc2)n1Cc1ccco1)N1c2ccccc2Sc2ccccc21
-15%,O=C(Nc1ncc2c(n1)CC(c1ccco1)CC2=O)c1ccco1 (centres undefined)
15%,COc1cccc(CNC(=O)CN(C)S(=O)(=O)c2cnc[nH]2)c1
-7%,CCc1ccnc(NS(=O)(=O)c2ccc3c(c2)CCO3)c1
-15%,O=C(O)c1ccccc1-c1ccccc1C(=O)Nc1ccccc1-c1ccccc1
-8%,COC(=O)CSc1nnc(COc2cccc3ccccc23)o1
10%,CS(=O)(=O)Nc1ccc(C(=O)Nc2ccc(S(=O)(=O)N3CCCCC3)cc2)cc1

VDR inhibitor,mol
-5%,O=C(NC1=NCCS1)c1cc(-c2ccc(F)cc2)nc2ccccc12
-7%,O=C(Nc1ccccc1F)c1ccccc1C(=O)Nc1ccccc1F
5%,COc1ccc(CN(C(=O)c2cc3ccccc3oc2=O)C2CCCC2)cc1
6%,COc1ccc2c(=O)c3c(=O)n(-c4ccccc4)c(-c4ccco4)nc3oc2c1
0%,CC(C)(C)c1nnc(NC(=S)Nc2ccccc2)s1
2%,Cc1noc(C)c1CSc1nnc(-c2cc(Cl)ccc2Cl)n1N
-12%,COc1ccc(CNC(=O)CN2C(=O)CC(c3ccccc3)=Nc3ccccc32)cc1
0%,c1ccc(Cn2nnc3c(Nc4ccc5c(c4)OCO5)nc(C4CC4)nc32)cc1
4%,Cc1cc(C)nc(SCc2nnc(SCc3ccc([N+](=O)[O-])cc3)n2Cc2ccco2)n1
3%,Cc1cc(C)cc(-n2c(SCC(=O)NCc3ccc4c(c3)OCO4)nc3ccccc3c2=O)c1

VDR inhibitor,mol
-16%,CCn1c(SCc2ccc(C)cc2)nnc1-c1cnccn1
7%,N=c1ccn(Cc2cccc(Cl)c2)cc1
11%,CN1CCN(c2nc(NCc3ccco3)nc(N)c2[N+](=O)[O-])CC1
-6%,O=C(NCc1ccco1)c1ccc(CNc2c(N3CCCCC3)c(=O)c2=O)cc1
-17%,CCCc1cc(C(=O)Cc2nc3ccccc3s2)c(O)cc1O
3%,CC(C)NC(=O)Nc1cccc2c1O[C@H](CN(C)C(=O)NC(C)C)[C@@H](C)CN([C@H](C)CO)C2=O
7%,Cc1ccccc1N1CCN(C(=O)CN2C(=O)c3ccccc3C2=O)CC1
-2%,CCCNC(=O)Cn1c(=O)cc(C)c2c(C)nn(-c3cccc(F)c3)c21
1%,CCN(CC)C(=O)c1[nH]cnc1C(=O)NCc1ccccc1
-9%,CCOc1ccnc2c1c(=O)n(Cc1cc(OC)cc(OC)c1)c(=O)n2C

Retrieved one by one from above (2):
VDR inhibitor,mol
3%,CC(C)NC(=O)Nc1cccc2c1O[C@H](CN(C)C(=O)NC(C)C)[C@@H](C)CN([C@H](C)CO)C2=O
7%,Cc1ccccc1N1CCN(C(=O)CN2C(=O)c3ccccc3C2=O)CC1

Next section.
VDR inhibitor,mol
5%,CC(=O)Nc1ccc(S(=O)(=O)NCCCc2ccccc2)cc1
-15%,CC(C)c1ccc(O)c(C(=O)c2cnn(-c3ccccc3)c2)c1
-24%,COc1cccc(-c2nc3cc(C)ccc3o2)c1
-23%,Cc1ccc(F)c(CNC(=O)C2CCC(=O)N(CCCN3CCCC3=O)C2)c1F (centres undefined)
0%,COc1ccc(NC(=O)Cn2nc(C)c3ccccc3c2=O)cc1
4%,Cc1cccc(NC(=O)C2CCN(S(=O)(=O)c3ccc4c(c3)C(C)(C)C(=O)N4C)CC2)c1C
-12%,CN(CCO)c1ccc(-c2nn(C)c(=O)c3ccccc23)cc1[N+](=O)[O-]
-14%,CC(C)Sc1nc(N2CCOCC2)c2c(c1C#N)CC(C)(C)SC2
2%,CCCCC(=O)Nc1ccccc1Oc1ccccc1
?,CS(=O)(=O)Nc1cccc(-c2nccc(Nc3ccc(F)cc3)n2)c1

VDR inhibitor,mol
7%,COC(=O)Nc1ccc2c(c1)OCO2
-9%,CCOC(=O)c1[nH]cnc1C(=O)Nc1ccc(Cl)cc1
7%,CCOc1ccc(C(C)NC(=O)c2ccc3c(c2)NC(=O)C(C)S3)cc1OCC (centres undefined)
-12%,Cc1ccc(CN2CCc3[nH]c(=O)[nH]c(=O)c3C2)cc1
-12%,COc1cccc(N2CCN(C3CC(=O)N(c4ccc(F)c(Cl)c4)C3=O)CC2)c1 (centres undefined)
-17%,CCOc1ccc(NC(=O)NNC(=O)c2ccc(CC)s2)cc1
-30%,COc1ccccc1NS(=O)(=O)c1cc(NC(=O)c2cc[n+]([O-])cc2)ccc1N1CCCC1
2%,O=C(Cc1ccc(NC2=NC3CS(=O)(=O)CC3S2)cc1)NCc1ccccc1 (centres undefined)
-12%,COc1cc(NC(=O)c2cccnc2SC)cc(OC)c1
-10%,O=C(COC(=O)CCOc1ccccc1)NCc1ccco1

VDR inhibitor,mol
14%,O=C(NC(=S)Nc1nc(-c2ccc(Br)cc2)cs1)c1ccco1
0%,O=C(CS(=O)CC(=O)N(CC(=O)NC1CCCC1)C1CCCC1)Nc1ccc(F)cc1 (centres undefined)
?,COc1ccccc1N1C(=O)C=C(Sc2nc(C)cc(C)n2)C1=O
-10%,COC(=O)c1cc2sccc2n1Cc1ccc(F)cc1Cl
-10%,O=C(Cc1csc(Nc2nc(=S)[nH]c3ccccc23)n1)N1CCN(c2cccc(Cl)c2)CC1
3%,CCCCN1CC(O)=C(c2nc(-c3ccc(Br)cc3)cs2)C1=N
-1%,CCOC(=O)c1cc(-c2ccc(C)cc2)n(CCC(=O)Nc2cc(Cl)ccc2C)c1C
23%,CCc1cc(C(=O)N2CCCC(CCC(=O)NCc3cccc(OC)c3)C2)no1 (centres undefined)
15%,COC(=O)N=Nc1c(O)n(Cc2ccccc2)c2ccccc12
-4%,COc1cc(/C=N/NC(=O)c2cc3ccccc3[nH]2)ccc1O

VDR inhibitor,mol
-3%,COc1ccccc1-c1cc2nc(C)cc(C)n2n1
-3%,CCN1C(C(=O)c2ccccc2)=C(NC(=O)c2ccc(Cl)cc2)c2ccccc2S1(=O)=O
-19%,NC(=O)NC(Cc1ccccc1)C(=O)NCC1(N2CCCCC2)CCCCC1 (centres undefined)
-4%,O=C(Nc1ccc2c(c1)OCO2)C1CCN(S(=O)(=O)c2cccc3cccnc23)CC1

Looked up above:
Under VDR inhibitor, O=C(Nc1ccc2c(c1)OCO2)C1CCN(S(=O)(=O)c2cccc3cccnc23)CC1 reads -4%
Under VDR inhibitor, COc1ccccc1-c1cc2nc(C)cc(C)n2n1 reads -3%
Under VDR inhibitor, CCN1C(C(=O)c2ccccc2)=C(NC(=O)c2ccc(Cl)cc2)c2ccccc2S1(=O)=O reads -3%
Under VDR inhibitor, NC(=O)NC(Cc1ccccc1)C(=O)NCC1(N2CCCCC2)CCCCC1 (centres undefined) reads -19%

This is a subset (hit frequency here may not be typical).
